Assay outcomes: PubChem BioAssay, National Center for Advancing Translational Sciences (NCATS)
Rango release inh: inhibitors of RanGTP-induced Rango-importin beta complex dissociation | O95149+P62826 | Biochemical FRET Rango-importin beta, RanGTP-induced dissociation | Potency, µM (highest dose often 46.1 µM), inactives show top-dose activity change, negative = inhibition | 0.071% of 340,000 active | AID 540253; active means falling FRET ratio curve, often poorly fitted, with flat reads before Ran was added; inconclusive means other falling curves, or compound fluorescence or quenching; inactive means flat or rising ratio curve;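 further: potency means the concentration at half of the fitted maximal effect; % of control where 0% means no effect; nearly all actives have a fitted effect of over 45% in size; -100% = wells without RanGTP and RCC1; the record marks most hits as doubtful in a second field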
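Quantitative HTS using a FRET biosensor: 0.1 uM Rango, 0.25 uM importin beta, 0.6 uM Ran, 2 mM GTP, 0.2 uM RCC1 final, PBS with DTT, Tween-20 and BSA. Post-read taken 45 min after Ran addition.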
Rango complex inh: Rango-importin beta binding inhibition | AID 540263 | Potency, µM (doses to about 92.2 µM), without a hit: at the highest dose inhibition of complex formation | 0.031% of 340,000 active | Q14974 | Rango CFP/YFP FRET sensor + importin beta, 45 min; active = rising FRET ratio curve, often small or poorly fitted; inconclusive = mostly compound fluorescence or quenching in the first reads; inactive = flat curves in all reads;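 further: potency means the concentration at half of the fitted maximal effect; 0% = DMSO wells and 100% = buffer wells lacking importin beta; nearly all actives have a fitted effect of over 15% in size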
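Inhibition scored from the CFP 486 nm/YFP 530 nm FRET ratio 45 min after adding 0.125 microM importin beta to 50 nM Rango biosensor preincubated 5 min with compound (room temperature, PBS with DTT, Tween-20, BSA). No-importin wells as positive control.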
GLA inh pH 4.5: alpha-galactosidase A (human) inhibition, pH 4.5; purified enzyme, 4-MU-alpha-Gal fluorescence, pH 4.5; activity change, negative = inhibition, % at 105 µM; 230,000 tested, under 10 active; inconclusive = small, poorly fitted or top-dose-only inhibition, or a rising curve; inactive = flat fitted curve, though single readings scatter; no compound was filed as active;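 further: 0% = full activity with enzyme and -100% = basal without enzyme; dose as in the result columns while the protocol names 77 µM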
Target sequence (P06280 whole entry, looked up): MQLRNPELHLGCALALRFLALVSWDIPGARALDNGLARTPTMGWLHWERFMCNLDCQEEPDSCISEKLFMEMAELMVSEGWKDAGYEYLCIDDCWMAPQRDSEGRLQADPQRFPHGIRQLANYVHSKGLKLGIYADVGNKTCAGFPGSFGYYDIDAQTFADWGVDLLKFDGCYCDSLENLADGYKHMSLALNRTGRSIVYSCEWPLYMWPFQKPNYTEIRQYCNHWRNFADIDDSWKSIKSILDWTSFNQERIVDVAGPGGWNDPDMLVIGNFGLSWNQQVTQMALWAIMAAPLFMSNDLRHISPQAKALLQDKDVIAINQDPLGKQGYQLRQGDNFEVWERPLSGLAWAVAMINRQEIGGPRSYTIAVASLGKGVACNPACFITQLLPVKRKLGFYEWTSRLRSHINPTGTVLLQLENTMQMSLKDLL
miR-21 FLuc: miR-21 reporter, rising signal. HeLa miR-21 FLuc reporter, luciferase, 48 h. 340,000 tested, under 10 active. AID 2288. Potency, µM (top dose mostly 38.3 µM), without a hit: at the highest dose reporter change, positive = more light; active = well fitted rising curve with a large enough effect; inconclusive = small, poorly fitted or top-dose-only effect; inactive = no such curve, though single readings can be large or run the other way;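 further: % of control where 0% means no effect; miR-21 action dims this reporter so a rising signal means less miR-21 action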
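Using DMEM plus 10% FBS, HeLa miR-21-FLuc cells are incubated with test compounds (final up to about 40uM) for 48 hours; firefly luciferase signal is then imaged following reagent-mediated lysis.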
The depositor's hits bear a star; u = inconclusive; x = not tested or not shown; & = joins results of further samples; [ ] = another dose, or the depositor's remark.

Order of results – Rango release inh, Rango complex inh, GLA inh pH 4.5, miR-21 FLuc
> Fc1ccc(C2c3cccn3CCN2C(=S)Nc2cccc(F)c2)cc1 (stereo not given)
  1%, 0.4%, u, 13%
> CC(=O)OC1CC(n2ccc(NC(=O)c3ccccc3)nc2=O)OC1CO (stereo not given)
  -6%, 1.3%, 12, -3%
> CCOC(=O)c1c(C)[nH]c(C)c1S(=O)(=O)N(C)CC(=O)Nc1ccccc1OC
  17%, u, x, -3%
> CCOc1cc(C=O)ccc1OCCSc1ccc(Cl)cc1
  16%, -4.2%, -18, 2%
> Cc1cc(C)nc(-n2nc(C)c3c(C(F)F)cc(C)nc32)n1
  -4%, 3.9%, 16, 0%
> O=C(Cc1c[nH]c2ccccc12)NCc1ccc2c(c1)OCO2
  10%, -1.5%, 4, -1%
> O=C(c1cc2ccccc2c(=O)o1)N1CCCC1
  x, x, 1, -2%
> CCC(=O)N1c2ccccc2NC2=C(C(=O)CC(C)(C)C2)C1c1ccc(O)c(OC)c1 (stereo not given)
  6%, 0.4%, x, 6%
> CCOc1ccc(NC(=O)CN2CCC(n3cnc4cc(F)ccc43)CC2)cc1
  -13%, 0.5%, 0[21.1 µM], 9%
> CCCCC(=O)N/C(N)=N/c1nc2ccccc2o1
  22%, -0.5%, -3, -42%
> CCOC(=O)Cc1csc(NC(=O)C2CCCN(S(=O)(=O)c3cnc[nH]3)C2)n1 (stereo not given)
  -5%, 3.0%, -1, 3%
> Cn1c(CNC(=O)CCNC(=O)c2ccc(F)c(F)c2)cc(=O)n(C)c1=O
  2%, 3.1%, x, -1%
> CCOC(=O)CSc1nc(-c2ccc3c(c2)OCO3)ccc1C#N
  -19%, u, 9, -51%
> COc1ccc(CNCCSc2nnnn2C)cc1OC
  8%, -1.2%, 8, -3%
> COc1ccccc1CC(=O)NCC1CCCO1 (stereo not given)
  25%, -0.6%, -2, 0%
> Cc1ccc(S(=O)(=O)N2CCN=C2SCc2ccc(Cl)c(Cl)c2)cc1
  12%, 4.0%, 3, -5%
> Cc1cc(N2CCN(C)CC2)nc2ccc(NC(=O)c3ccccc3F)cc12
  -26%, -0.4%, -2, -51%&-51%
> Cc1ccnc(NS(=O)(=O)c2ccc(NC(=O)C3CC3)cc2)n1
  -1%, 3.7%, x, -5%
> CCOC(=O)CN1C(=O)S/C(=C/c2cc(C)n(C)c2C)C1=O
  -18%, u, x, x
> COc1cc(/C=C(\C#N)C(=O)Nc2ccccc2)ccc1OCCN1CCOCC1
  -12%, 1.9%, x, -31%

Pulled by structure from the entries so far:
Order of results – Rango release inh, Rango complex inh, GLA inh pH 4.5, miR-21 FLuc
> Cc1cc(N2CCN(C)CC2)nc2ccc(NC(=O)c3ccccc3F)cc12
  -26%, -0.4%, -2, -51%&-51%
> Cn1c(CNC(=O)CCNC(=O)c2ccc(F)c(F)c2)cc(=O)n(C)c1=O
  2%, 3.1%, x, -1%

Next part:
Order of results – Rango release inh, Rango complex inh, GLA inh pH 4.5, miR-21 FLuc
> Cc1nn(-c2ccccn2)c2c1C(=O)C(Br)CC2 (stereo not given)
  -4%, 0.7%, -3, 5%
> CC(=O)Nc1ccc(S(=O)(=O)N2CCCCC2C(=O)O)cc1 (stereo not given)
  4%, 0.8%, 10, -3%
> N[C@@H](Cc1ccccc1)c1nnc(SCc2ccccc2F)o1
  -23%, 7.8%, x, -9%
> Nn1c(SCC(=O)N2CCc3ccccc3C2)nnc1-c1cccs1
  0%, 2.6%, 2, -7%
> COc1cc2cnc(-c3ccccc3)c(-c3cc(OC)c(OC)c(OC)c3)c2cc1OC
  0%, -2.3%, x, x
> COc1cc(O)c(C(CC(=O)N2CCCC(C)C2)c2ccc3c(c2)OCO3)c(OC)c1 (stereo not given)
  0%, -0.9%, 1, 5%
> CCOC(=O)c1c(NC(=O)CC2Sc3ccc(C(F)(F)F)cc3NC2=O)sc(C)c1C (stereo not given)
  10%, -0.8%, 0, -12%
> FCCCOc1ccc(/C=N/OCc2ccc(Cl)cc2Cl)cc1
  -20%, -5.6%, -3, -4%
> CC1CCc2sc(C(=O)N3CCN(c4ncccn4)CC3)cc2C1 (stereo not given)
  4%, -0.2%, x, x
> Cc1ccc(CNC(=O)CNS(=O)(=O)c2ccc(Br)s2)cc1
  -21%, 0.9%, x, 0%
> COc1ccc(-c2cc(-c3nc4ccccn4c3NCc3ccccc3)ccc2OC)cc1
  26µM*, u, x, x
> Cc1ccc(C)c(S(=O)(=O)N(C)C2CCS(=O)(=O)C2)c1 (stereo not given)
  6%, -2.9%, x, x
> O=C(O)CCCC(=O)Nc1ccc(N2CCCC2)cc1
  18%, -0.1%, 6, 7%
> COc1ccc(NC(=O)c2sc3nc(C)nc(N4CCN(c5ccccn5)CC4)c3c2C)cc1Cl
  9%, 1.5%, x, 2%
> O=c1[nH]n(-c2ccccn2)c(=O)c2ccccc12
  21%, u, 8, -18%
> CC(=O)c1cnc2c(-c3ccccc3)c(-c3ccccc3)nn2c1C
  0%, -0.9%, x, 0%
> CC1CCc2[nH]c3ccc(C(=O)NCCCOC(C)C)cc3c2C1 (stereo not given)
  u, u, -7, -14%
> COc1ccc(OC)c(NS(=O)(=O)c2ccc3c(c2)n(C)c(=O)n3C)c1
  10%, 3.0%, -9, -6%
> Cc1cc2ccccc2c(=O)n1CC(=O)NCC(=O)N1CCCC(C)C1 (stereo not given)
  -10%, 3.4%, 0, -1%
> COc1ccc(NC(=O)CN(C)C(=O)c2cc(C3CC3)nn2-c2ccccc2)cc1
  -12%, -1.4%, x, x
> CN(C)c1ccc(CNCCC2(O)CCOC(C)(C)C2)cc1 (stereo not given)
  0%, 2.4%, -7, -2%
> O=C(Nc1cccnc1)c1noc2c1CCCC2
  5%, 0.5%, 4, -41%
> O=C(Cc1ccc(NC(=O)C2CCCN(C(=O)C3CCCCC3)C2)cc1)Nc1ccc(C(=O)N2CCOCC2)cc1 (stereo not given)
  -3%, 0.3%, x, x
> Cc1ccc2nc(/C(C#N)=C\c3ccc(N4CCCCC4)c([N+](=O)[O-])c3)[nH]c2c1
  u, u, -2, 16%
> CCOc1ccc(C(C(=O)NCC2CCCO2)N(Cc2ccccc2)C(=O)c2snc(C(N)=O)c2N)cc1 (stereo not given)
  10%, -0.5%, x, 7%
> O=S(=O)(Nc1cc(S(=O)(=O)N2CCOCC2)ccc1O)c1ccc2c(c1)OCCCO2
  1%, -0.5%, x, x
> Cc1cc(NC(=O)c2ocnc2C)no1
  -8%, -4.1%, 3, -18%
> CO/N=C/NC(=O)c1cn(-c2ccc(F)cc2)c(=O)c2ccccc12
  8%, 4.3%, 2, 0%
> Cc1ccc(NC(=O)CCNS(=O)(=O)c2cc(Br)cnc2N)cc1Cl
  -21%, 4.8%, -15, 7%
> CCOc1ccc(C(=O)CN2C(=O)NC3(CCCCCC3)C2=O)cc1
  0%, 3.9%, x, x

Sorted by the number under miR-21 FLuc (highest first): 3 from the list above
Order of results – Rango release inh, Rango complex inh, GLA inh pH 4.5, miR-21 FLuc
> Cc1ccc(NC(=O)CCNS(=O)(=O)c2cc(Br)cnc2N)cc1Cl
  -21%, 4.8%, -15, 7%
> CN(C)c1ccc(CNCCC2(O)CCOC(C)(C)C2)cc1 (stereo not given)
  0%, 2.4%, -7, -2%
> Cc1cc(NC(=O)c2ocnc2C)no1
  -8%, -4.1%, 3, -18%

(more compounds)
Order of results – Rango release inh, Rango complex inh, GLA inh pH 4.5, miR-21 FLuc
> CN(CCc1ccccc1)C(=O)c1ccc(NC(=O)Cc2cccc(NC(=O)C3CCN(C(=O)c4ccccc4)CC3)c2)cc1
  -4%, 2.5%, x, x
> CC(C)(C)c1ccc(Oc2coc3cc(OCC(=O)O)ccc3c2=O)cc1
  -6%, 0.2%, x, 6%
> Cc1ccc(S(=O)(=O)N2CCC(C(=O)NCCCN3CCCCCC3)CC2)cc1
  -1%, u, -4, 0%
> Cc1ccccc1OCC(O)Cn1c(N2CCN(c3ccccc3)CC2)nc2c1c(=O)[nH]c(=O)n2C (stereo not given)
  -6%, -1.5%, -5, -3%
> COc1ccccc1NC(=O)COc1cccc(-n2cnnn2)c1
  13%, 1.7%, -3, -18%
> Cn1c(NCc2ccccc2)cc(=O)n(C)c1=O
  11%, -1.9%, 1, -3%
> COC(C(=O)NNS(=O)(=O)c1ccc([N+](=O)[O-])cc1)c1ccccc1 (stereo not given)
  -2%, 0.8%, x, 3%
> CCN(C(=O)COC(=O)c1cnc(C)cn1)C1CCS(=O)(=O)C1 (stereo not given)
  2%, -0.5%, x, x
> COc1ccc(/C=C(/NC(=O)c2ccco2)C(=O)NCCc2ccccc2)cc1
  0%, 0.1%, x, -2%
> Cc1cc(C)c2c(CC(=O)Nc3ccc(Cl)cn3)coc2c1
  4%, -2.9%, -10, 1%
> COc1c(Cl)cc(Cl)cc1C(=O)Nc1ccc(NC(C)=O)cc1
  1%, -1.7%, 3, -10%
> O=C(NCCCN1CCOCC1)c1ccc2c(c1)N(Cc1ccccc1)C(=O)c1ccccc1S2=O (stereo not given)
  14%, -2.0%, x, -2%
> N#C/C(=C\c1ccc(F)cc1F)S(=O)(=O)c1ccccn1
  -2%, -0.1%, -2, -6%
> O=S(=O)(NC1CCCC1)c1ccccc1Br
  -9%, 0.6%, -15, -4%
> O=C(c1cc2ccccc2o1)N1CCCCCC1
  0%, 0.9%, 1, -41%
> CCOc1cc(CN2CCCC(C(=O)c3cccc(C(F)(F)F)c3)C2)ccc1O (stereo not given)
  -25%, 3.9%, -20, -4%
> COc1ccccc1NC(=O)CC12CC3CC(CC(Br)(C3)C1)C2
  6%, -0.8%, x, -4%
> COc1ccc(/C=N\NS(=O)(=O)c2ccc(Cl)cc2)cc1COc1ccccc1[N+](=O)[O-]
  2%, -1.5%, -9, -4%
> COc1ccc(OC)c(NC(=O)NC2(C(F)(F)F)Oc3ccccc3O2)c1
  -8%, -4.8%, 3, -6%
> COCCN(C(=O)Cn1nnc2ccccc21)C(C(=O)NC1CCCC1)c1cc(OC)ccc1OC (stereo not given)
  -1%, -1.1%, 3, -3%
> CCOc1ccccc1NC(=O)N1CCCC(c2nc3c(nnn3Cc3ccc(C)cc3)c(=O)[nH]2)C1 (stereo not given)
  -7%, 2.7%, 0, -10%
> CCOC(=O)C(NC(=O)c1ccccc1F)(Nc1cc(C)on1)C(F)(F)F (stereo not given)
  2%, u, 1, -7%
> COc1ccc(C(=O)C[n+]2ccc(N)c(C)c2C)cc1
  -14%, -0.1%, -19, -6%
> CCOC(=O)c1c(NC(=O)c2ccco2)sc2c1CCCCC2
  5%, 0.6%, -11, -14%
> Cc1cccc(COC(=O)Nc2ccc(NC(=O)c3ccccc3Cl)cc2)c1
  0%, 3.2%, x, 0%
> C=CCSc1nnc(COc2ccc(=O)n(-c3ccccc3)n2)n1CC
  0%, -5.1%, 8, 2%
> Cc1ccccc1-c1nc(-c2ccccn2)no1
  0%, -0.7%, 1, 29%
> COc1ccc(CC(=O)NC(C)c2ccc(Cl)c(Cl)c2)cc1S(=O)(=O)N1CCOCC1 (stereo not given)
  -14%, -5.4%, x, x
> Cc1nnc(SCC2=C(C(=O)O)N3C(=O)C(NC(=O)C(C)n4nc(C(F)(F)F)cc4C)C3SC2)s1 (stereo not given)
  -1%, 2.6%, -7[21.1 µM], 1%
> CCCCn1c(N)c(N(CCOC)C(=O)c2c(CC)noc2C)c(=O)[nH]c1=O
  44%, 1.8%, x, x
> COc1ccc(NS(=O)(=O)c2csc(C(N)=O)c2)cc1OC
  -12%, 1.4%, x, -1%
> COc1ccc(N(CC(=O)N2CCN(c3ccc(Cl)cc3)CC2)S(=O)(=O)c2c(C)n[nH]c2C)cc1
  -4%, -3.1%, -13, 19%
> CCOC(=O)N1CCN(C(=O)CSc2ccc(-c3ccncc3)nn2)CC1
  17%, -0.8%, -4, -3%
> Cc1ccc(NCc2nnc(SCC(=O)Nc3ncc(C)s3)n2Cc2ccco2)c(C)c1
  4%, 0.1%, 10, -4%
> Cc1c([N+](=O)[O-])c(N)nn1C
  4%, 4.5%, -19, -5%

A portion of the library; rates above refer to the full screens.
